Compound activity as filed in PubChem.
miR-21 FLuc = raises the signal of a miR-21 reporter | HeLa miR-21 FLuc reporter, luciferase, 48 h | Potency, µM (series often up to 38.3 µM), without a hit: top-dose reporter change, positive = more light | 340,000 tested, under 10 active; active = well fitted rising curve with a large enough effect; inconclusive = small, poorly fitted or top-dose-only effect; inactive = no such curve, though single readings can be large or run the other way;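 also: % of control where 0% means no effect; miR-21 action dims this reporter so a rising signal means less miR-21 action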
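HeLa cells endogenously expressing miR-21, stably carrying CMV-driven firefly luciferase with a downstream miR-21 binding site, 2000 cells/well. Titrations up to approximately 40 uM, 48 hours; luciferase luminescence read.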
GLA inh pH 4.5 = inhibitors of human alpha-galactosidase A at pH 4.5 | 230,000 tested, under 10 active | AID 1467 | activity change, negative = inhibition, % at 105 µM | P06280 | purified enzyme, 4-MU-alpha-Gal fluorescence, pH 4.5; inconclusive = small, poorly fitted or top-dose-only inhibition, or a rising curve; inactive = flat fitted curve, though single readings scatter; no compound was filed as active;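 also: 0% = full activity with enzyme and -100% = basal without enzyme; dose as in the result columns while the protocol names 77 µM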
Rango complex inh = inhibitors of Rango-importin beta complex formation; Rango CFP/YFP FRET sensor + importin beta, 45 min; AID 540263; 340,000 compounds, 0.031% hits; Potency, µM (series often up to 92.2 µM), inactives show at the highest dose inhibition of complex formation; active = rising FRET ratio curve, often small or poorly fitted; inconclusive = mostly compound fluorescence or quenching in the first reads; inactive = flat curves in all reads;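 also: potency is read from the fitted curve at half-maximal effect; 0% = DMSO wells and 100% = buffer wells lacking importin beta; nearly all actives have a fitted effect of over 15% in size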
Target sequence (Q14974 whole entry, looked up): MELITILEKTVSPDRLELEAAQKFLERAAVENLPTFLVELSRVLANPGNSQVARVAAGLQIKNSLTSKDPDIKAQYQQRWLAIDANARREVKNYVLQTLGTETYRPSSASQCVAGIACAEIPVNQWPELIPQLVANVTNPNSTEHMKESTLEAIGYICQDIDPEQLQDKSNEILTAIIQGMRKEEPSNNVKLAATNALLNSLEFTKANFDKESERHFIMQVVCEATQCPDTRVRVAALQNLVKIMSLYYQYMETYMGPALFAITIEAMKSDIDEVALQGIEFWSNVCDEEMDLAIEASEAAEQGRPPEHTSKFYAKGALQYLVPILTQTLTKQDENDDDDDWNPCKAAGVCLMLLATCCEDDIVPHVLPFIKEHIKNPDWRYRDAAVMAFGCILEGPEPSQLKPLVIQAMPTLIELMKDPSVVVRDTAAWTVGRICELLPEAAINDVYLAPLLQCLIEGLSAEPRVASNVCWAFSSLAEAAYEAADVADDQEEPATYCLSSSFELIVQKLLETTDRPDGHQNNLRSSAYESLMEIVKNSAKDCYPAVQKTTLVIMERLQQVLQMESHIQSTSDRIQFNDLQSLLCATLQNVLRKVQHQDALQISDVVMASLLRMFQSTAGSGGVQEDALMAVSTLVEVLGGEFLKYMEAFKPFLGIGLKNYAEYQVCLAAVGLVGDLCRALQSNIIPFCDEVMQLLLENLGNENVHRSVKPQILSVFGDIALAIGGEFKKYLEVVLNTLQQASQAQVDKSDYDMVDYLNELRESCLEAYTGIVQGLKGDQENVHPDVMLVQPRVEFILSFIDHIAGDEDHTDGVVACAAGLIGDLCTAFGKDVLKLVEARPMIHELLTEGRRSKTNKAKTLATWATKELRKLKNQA
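FRET biosensor Rango (snurportin 1 IBB between N-terminal EYFP and C-terminal Cerulean), 50 nM in PBS/1 mM DTT/0.02% Tween-20/0.1% BSA, preincubated 5 min RT with compound; 0.125 microM importin beta added, 45 min RT, CFP/YFP FRET ratio read.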
Rango release inh = inhibitors of RanGTP-induced Rango-importin beta complex dissociation; Potency, µM (titrated, usually from 46.1 µM), without a hit: top-dose activity change, negative = inhibition; Biochemical FRET Rango-importin beta, RanGTP-induced dissociation; 340,000 compounds, 0.071% hits; O95149+P62826; active means falling FRET ratio curve, often poorly fitted, with flat reads before Ran was added; inconclusive means other falling curves, or compound fluorescence or quenching; inactive means flat or rising ratio curve;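 also: potency is read from the fitted curve at half-maximal effect; % of control where 0% means no effect; nearly all actives have a fitted effect of over 45% in size; -100% = wells without RanGTP and RCC1; the record marks most hits as doubtful in a second field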
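Rango/importin beta premix (0.1/0.25 uM final), PBS + 1 mM DTT + 0.02% Tween-20 + 0.1% BSA; cpd 5 min RT; FRET pre-read; + RanGTP-RCC1 (0.6 uM Ran, 2 mM GTP, 0.2 uM RCC1); 45 min RT; FRET post-read, ex 430, em 486/530 nm.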
* marks the source's active call; other numbers are inactive results; ? = inconclusive; . = no result given; & = joins results of further samples; [ ] = another dose, or the depositor's remark. A portion of the library (hit frequency here may not be typical).

SMILES	miR-21 FLuc	GLA inh pH 4.5	Rango complex inh	Rango release inh
COc1ccccc1C1=NNC(=Nc2cccc(S(=O)(=O)N(C)C)c2)SC1	?	-8	-1.1%	2%
Cc1cc(C)c2nc(NC(=O)c3ccc4c(=O)n5c(nc4c3)CCCCC5)sc2c1	1%	9	-1.0%	1%
O=C(CSc1ccc2nc(-c3ccccc3)cn2n1)NCC1CCCO1 (configuration not stated)	-35%	.	-1.6%	30%
O=C(Nc1ccc(OCc2ccccc2Cl)cc1)c1cccnc1	29%	.	1.1%	1%
Cc1ccc(C2=N/C(=C\c3ccc(OS(=O)(=O)c4ccc(C)cc4)cc3)C(=O)O2)cc1	-2%	-6	?	4%
O=C(NCc1n[nH]c(=S)n1-c1ccc(F)cc1)c1ccco1	-1%	-6	9.0%	1%
O=C(CN1C(=O)CC(c2ccco2)Sc2ccccc21)Nc1ccccc1F (configuration not stated)	-6%	-1	?	?
O=C(CC1C(=O)NCCN1Cc1ccc(Cl)c(F)c1)NC1CCCCC1 (configuration not stated)	-3%	.	-2.2%	-9%
O=C(Nc1ccc(N2CCCC2)cc1)c1ccc(Cl)cc1Cl	-30%	.	-1.2%	6%
Cc1ccc(N2C(=O)C3CCCN3C2=S)cc1 (configuration not stated)	-3%	.	-1.6%	-14%
COc1cccc(C(=O)N(Cc2nc(-c3ccc(C)cc3)no2)C(C)C)c1	0%	-7	-2.4%	-1%
Cn1c(=O)c2c(nc(N/N=C/c3ccco3)n2C)n(C)c1=O	1%	8	-0.6%	0%
Cc1cccc(OCCCC(=O)Nc2ccc(S(N)(=O)=O)cc2)c1	-4%	6	1.9%	-12%
COc1ccc(Nc2nnc(SCC(=O)c3cc4ccccc4o3)s2)cc1	-42%	4	-6.5%	17%
O=C(O)c1cccc2c1-c1ccc([N+](=O)[O-])cc1C2=O	.	.	-4.1%	1%
CC(=O)NC(=O)c1cnn(-c2ccccc2)c1N	-5%	-5	1.9%	-7%
Cn1nc(OCc2ccccc2)ccc1=O	-10%	-4	0.1%	2%
O=C(COc1ccc2c3c(c(=O)oc2c1)CCC3)Nc1ccccn1	-22%	.	-0.7%	-12%
Cc1cccc(Nc2nnc(-c3ccc(N4CCOCC4)c([N+](=O)[O-])c3)c3ccccc23)c1	28%	1	-0.3%	-6%
O=C(N/N=C/c1ccccn1)c1cccc([N+](=O)[O-])c1	3%	-22	0.1%	-14%
Cc1ccn2cc(-c3ccc(NC(=O)c4ccco4)cc3)nc2c1	-38%	-2	-0.8%	9%
COc1ccc(N(CC(=O)NC(C)C)C(=O)CCC(=O)Nc2ccccn2)cc1	0%	.	-3.3%	1%
CCC(CC)c1nnc(NC(=O)c2cc([N+](=O)[O-])ccc2N2CCOCC2)s1	.	.	-0.3%	-1%
CCN1CCN(C(=O)c2ccc(Cl)c(S(=O)(=O)N3CCCCCC3)c2)CC1	3%	5	1.2%	10%
COc1ccc(N2CC(C(=O)NNC(=O)c3ccc(Br)cc3)CC2=O)c(OC)c1 (configuration not stated)	.	.	-4.7%	10%
COC(=O)[C@]1(Cc2ccccc2)N[C@H](CN(C)C(=O)Nc2ccccc2)[C@@H]2C(=O)N(C)C(=O)[C@@H]21	.	.	1.8%	-2%
O=C(CCCN1C(=O)/C(=C/c2ccccc2)SC1=S)NCCCn1ccnc1	20%	.	6.4%	4%
COc1ccc(CN(C)C(C)C(=O)Nc2cccc3ccccc23)cc1 (configuration not stated)	1%	.	-1.1%	-5%
COC(=O)C1(Cc2cc(-c3ccccc3)no2)CCN(C(=O)OC(C)(C)C)CC1	-12%	.	0.9%	-8%
COc1ccc(N(CC(=O)NCCC2=CCCCC2)S(C)(=O)=O)cc1OC	-9%	-2	-2.1%	5%

Ordered by value in miR-21 FLuc (falling): 6 of the compounds above
SMILES	miR-21 FLuc	GLA inh pH 4.5	Rango complex inh	Rango release inh
O=C(CCCN1C(=O)/C(=C/c2ccccc2)SC1=S)NCCCn1ccnc1	20%	.	6.4%	4%
COc1ccc(CN(C)C(C)C(=O)Nc2cccc3ccccc23)cc1 (configuration not stated)	1%	.	-1.1%	-5%
COc1ccc(N(CC(=O)NC(C)C)C(=O)CCC(=O)Nc2ccccn2)cc1	0%	.	-3.3%	1%
COc1ccc(N(CC(=O)NCCC2=CCCCC2)S(C)(=O)=O)cc1OC	-9%	-2	-2.1%	5%
COC(=O)C1(Cc2cc(-c3ccccc3)no2)CCN(C(=O)OC(C)(C)C)CC1	-12%	.	0.9%	-8%
Cc1ccn2cc(-c3ccc(NC(=O)c4ccco4)cc3)nc2c1	-38%	-2	-0.8%	9%

(further entries)
SMILES	miR-21 FLuc	GLA inh pH 4.5	Rango complex inh	Rango release inh
Cc1ccc(CNC(=O)C2CCCN(S(=O)(=O)N3CC(C)CC(C)C3)C2)cc1 (configuration not stated)	-4%	.	1.1%	6%
COc1cc(C2C(c3ccccc3)C(c3cc(OC)cc(=O)o3)C2c2ccccc2)oc(=O)c1 (configuration not stated)	.	.	-0.8%	2%
CCOC(=O)C1CCN(C(=O)c2ccc(N3CCOCC3)c([N+](=O)[O-])c2)CC1	.	.	-1.0%	1%
CN(C)C=Nc1ccc2nn(-c3ccccc3)nc2c1	-47%	15	?	-27%
CC(C)(C)NCc1cc(Cl)ccc1OCc1cccs1	-3%	-1	-0.9%	-12%
O=C(CCNS(=O)(=O)c1cccc2nsnc12)NCc1ccccc1Cl	1%	1[21.1 µM]	0.0%	-5%
COc1cc(S(=O)(=O)N2CCCCCC2)c(OC)cc1Br	-5%	6	0.9%	6%
O=c1nc(N/N=C/C=C/c2ccccc2)cn[nH]1	-38%	-7	-1.2%	5%
CC(C(=O)Nc1ccc(S(=O)(=O)N2CCOCC2)cc1)N1C(=O)C2CC=CCC2C1=O (configuration not stated)	0%	6	3.3%	-9%
CC1(O)CC2CC1C(C(=O)O)C2C(=O)O (configuration not stated)	.	.	-5.7%	2%
CC(NC(=O)c1ccc2nc[nH]c2c1)c1ccccc1 (configuration not stated)	-2%	11	1.7%	24%
O=[n+]1c2c(n([O-])c3ccccc31)CCC2	0%	4	-1.0%	-4%
COc1ccc(O)c(C(=O)c2cc(C#N)c(=O)n(Cc3ccccc3)c2)c1	7%	-12	?	-24%
O=C(C=CC(=O)OC1CCCCC1)OC1CCCCC1	.	.	0.6%	-4%
CCOc1ccc(N(C(=O)CNC(=O)c2cccs2)C(C(=O)NCC2CCCO2)c2ccc(OC)c(OC)c2)cc1 (configuration not stated)	-5%	-4	-0.2%	-10%
COc1cc(OC)c(NC(=O)CCCn2c(=O)oc3ccccc32)cc1Cl	-6%	-2	0.5%	-7%
Cc1cc(C)nc(NC(N)=NCCc2c[nH]c3ccccc23)n1	28%	?	4.1%	-14%
O=c1oc2cc(OCc3c(F)cccc3Cl)ccc2cc1-c1ccccn1	-4%	5	0.0%	-8%
Cc1cc(C)n(CCC(=O)N/N=C/c2ccc(Br)c([N+](=O)[O-])c2)n1	5%	-8	-1.9%	-24%
O=C(O)CNc1ncccc1[N+](=O)[O-]	-3%	-2	0.9%	0%

Pulled by structure from the list above:
SMILES	miR-21 FLuc	GLA inh pH 4.5	Rango complex inh	Rango release inh
O=C(O)CNc1ncccc1[N+](=O)[O-]	-3%	-2	0.9%	0%
O=c1oc2cc(OCc3c(F)cccc3Cl)ccc2cc1-c1ccccn1	-4%	5	0.0%	-8%
O=C(C=CC(=O)OC1CCCCC1)OC1CCCCC1	.	.	0.6%	-4%

Additional structures:
SMILES	miR-21 FLuc	GLA inh pH 4.5	Rango complex inh	Rango release inh
COc1ccc2cc(N=Cc3nc(-c4ccc(C)cc4)oc3O)cnc2c1	-3%	0	?	1%
CC1Cc2cc(/C(O)=C3\C(=O)C(=O)N(CCN(C)C)C3c3ccccc3F)ccc2O1 (configuration not stated)	-20%	-8	-5.3%	-12%
COc1ccc(CC(=O)NNC(=S)NC(=O)c2cccnc2)cc1	4%	-8	0.9%	13%
Fc1ccc(-c2c[nH]c(=S)n2Cc2ccccc2)cc1	20%	4	-0.4%	-1%
CC1(C)Cc2c(c(N3CCOCC3)nc3sc(C(=O)Nc4cccc(Cl)c4)c(N)c23)CO1	-9%	.	0.1%	7%
CCOC(=O)N1CCN(S(=O)(=O)c2cc(Br)cnc2N)CC1	-8%	5	-0.6%	-11%
Cc1cc(=O)oc2cc(Oc3ccc(C(N)=O)cc3[N+](=O)[O-])ccc12	-1%	8	5.2%	-2%
CCOC(=O)[C@@H]1[C@H]2COc3cc(OC)ccc3[C@H]2N2C(=O)N(c3ccc(F)cc3)C(=O)[C@@]12C	-2%	.	7.3%	-5%
CC(=O)Nc1ccc(S(=O)(=O)Nc2c(NC3CCCCC3)c3ccccc3oc2=O)cc1	-2%	.	1.2%	-2%
CCOc1ccc(Oc2nc(N(CC)CC)nc(N3CCOCC3)n2)nn1	-17%	1	?	-6%
CC(=O)c1sc(NC(=O)c2cnc(Cl)c(Cl)c2)nc1C	-50%	.	-1.8%	4%
COc1ccc(C(=O)COC(=O)c2cncc(Br)c2)cc1	.	.	-0.2%	0%
COC(C[C@@H](O)[C@H](C)[C@H](O)COCc1ccccc1)OC	6%	-2	-0.4%	28%
CCc1ccc(-c2nc(CN3CCC(C(=O)NCc4ccccc4OC)CC3)c(C)o2)cc1	-1%	-15	1.4%	-10%
CC(C)[C@H](NC(=O)N1CCn2c1nc1ccccc12)C(=O)NCc1ccccc1Cl	7%	.	0.5%	2%
Cc1ccc(C(=O)CCC(=O)NC2=NCCS2)cc1	.	.	-0.7%	-23%
Cc1cc(C(=O)Nc2ccc(S(=O)(=O)Nc3nccs3)cc2)c(C)o1	-18%	0	-2.5%	-8%
COc1ccc(CCC(=O)N2CCN(c3ccccc3)CC2)cc1OC	-1%	.	6.1%	-2%
COc1cccc(CNC(=O)CSc2cc(=O)n(C)c3ccccc23)c1	-1%	0	6.1%	1%
O=C(OCC(=O)N1CCOCC1)c1cnc(Cl)c(Cl)c1	.	.	0.1%	5%
CCN1C(=O)c2cccc3c(S(=O)(=O)Nc4ccc(O)c(C(=O)O)c4)ccc1c23	-3%&1%	.	4.8%	3%
COc1ccc(C(c2sc3nc(C)nn3c2O)N2CCN(Cc3ccccc3)CC2)cc1OC (configuration not stated)	-15%	-6	3.3%	1%
Oc1ccccc1C=NN=Cc1c(O)ccc2ccccc12	.	.	?	?
CC(=O)Nc1nc(C)c(S(N)(=O)=O)s1	-1%	3	1.2%	19%
CCOC(=O)N1CCN(c2cc(=O)n(C3CCCCC3)c(=O)[nH]2)CC1	-1%	0	3.1%	-1%
O=C(CSc1nnc(Nc2ccccc2F)s1)NC(=O)CN1CCCC1=O	.	.	-3.3%	0%
Cc1ccc(Cl)cc1NC(=O)C1CC(=O)N(C(C)C)C1 (configuration not stated)	-3%	.	-2.4%	-13%
O=C(N/N=C/c1cccs1)c1cc(-c2ccc(Cl)s2)[nH]n1	-2%	.	-0.3%	2%
CCCC(=O)N(c1ccc(OCC)cc1)S(=O)(=O)c1ccc2c3c(cccc13)C(=O)N2C	-1%	.	?	?
CCCCn1c(SCc2nc3ccccc3s2)nc2cc(S(N)(=O)=O)ccc21	-9%	-4	?	-7%
O=C1CSC(c2cccnc2)N1CCc1ccccn1 (configuration not stated)	6%	11	-0.8%	1%
COc1ccc2c(c1OC)CN(C)CCc1cc3c(cc1C(=O)C2)OCO3	4%	12	1.0%	1%
OC(COc1ccc(Cl)cc1Cl)CN1CCc2ccccc2C1 (configuration not stated)	-14%	.	-2.1%	-4%
Clc1ccc(OCc2nnnn2-c2ccccc2)cc1	-13%	-2	11%	6%
Brc1ccccc1C1=Nn2c(nnc2-c2ccccc2)SC1	-19%	-2	0.0%	-5%
C=COCCNC(=O)C(=O)NCC(C)C	.	.	1.5%	3%
CCN(Cc1ccccc1)C(=O)C1CCN(Cc2ccc(OC)c(OC)c2OC)CC1	2%	1	0.7%	13%
CN(C)c1nc(Nc2ccc(Cl)c(Cl)c2)nc(N(C)C)n1	1%	.	-2.5%	5%
NNC(=O)CN1CCCc2ccccc21	-29%	4	-6.3%	-13%
